MT1-MMP act inh – blockers of MT1-MMP proenzyme processing, primary screen, HT1080 RFP-PRO-GFP cells, GFP/RFP fluorescence; GFP/RFP ratio fluorescence, overnight; percent of plate control window, DMSO zero; GFP/RFP ratio change, % at 20 µM; 360,000 tested, 0.061% active; AID 651647, 2012;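 active = GFP/RFP ratio change of at least 30% with cell ATP level not reduced by more than half and red fluorescence within 50% of control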; also: strong numbers were not always called active
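Assay system: RFP-PRO-GFP reporter HT1080 cells; read-out basis: GFP/RFP fluorescence ratio; benchmarks: DMSO wells and RFP-L50D-GFP cells; doses: 20 µM single dose, 1% DMSO; schedule: overnight cell settling, then overnight compound exposure, 37 °C, 5% CO2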
HIV Env fusion – inhibitors of HIV-1 Env-driven cell-cell fusion, primary screen, HeLa-JRFL effector, CEM21 target cells, luciferase; AID 651610, 2012; inhibition, % at 12.3 µM; 360,000 tested, 1.1% active;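 active = mean replicate inhibition score of at least 50 and every replicate individually at or above 50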;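 also: 0% = plate neutral controls and 100% = maraviroc near 300 nM; one replicate is shown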
PABP polyA inh – PABP poly(A) RNA binding inhibitors, primary screen, biochemical, fluorescence polarization, uHTS; inhibition, % at 35 µM; AID 2014, 2009; 290,000 tested, 1% active;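 active = 50% or more with normal probe brightness, or confirmed in later tests; about a fifth of its hits are not listed in these tables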;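 also: calls also rest on retests at 20 µM and on dose response follow-up; controls were probe without protein and protein plus probe with vehicle; some compounds called inactive have numbers as strong as hits; many hits fall short of the cut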
Target sequence (P11940 whole entry, looked up): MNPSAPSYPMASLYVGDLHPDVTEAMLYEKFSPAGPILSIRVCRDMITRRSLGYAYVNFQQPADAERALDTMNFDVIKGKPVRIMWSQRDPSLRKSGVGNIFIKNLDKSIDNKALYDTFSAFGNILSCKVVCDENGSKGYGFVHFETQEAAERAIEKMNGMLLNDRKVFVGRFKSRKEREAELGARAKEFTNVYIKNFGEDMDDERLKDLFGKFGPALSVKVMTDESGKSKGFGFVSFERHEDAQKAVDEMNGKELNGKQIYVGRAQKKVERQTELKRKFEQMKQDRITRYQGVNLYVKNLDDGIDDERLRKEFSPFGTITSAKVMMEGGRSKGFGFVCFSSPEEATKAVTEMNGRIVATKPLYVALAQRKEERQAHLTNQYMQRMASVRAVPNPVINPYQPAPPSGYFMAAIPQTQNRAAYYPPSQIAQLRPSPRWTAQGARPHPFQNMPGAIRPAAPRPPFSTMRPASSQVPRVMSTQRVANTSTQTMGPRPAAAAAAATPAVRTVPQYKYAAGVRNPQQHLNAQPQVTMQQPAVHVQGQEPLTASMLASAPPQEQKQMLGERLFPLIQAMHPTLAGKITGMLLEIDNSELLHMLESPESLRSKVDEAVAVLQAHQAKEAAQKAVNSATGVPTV
Rce1 inhib – yeast Rce1p protease inhibitors, primary screen, biochemical, fluorescence, cell-free homogeneous | 290,000 tested, 0.27% active | yeast membranes, quenched prenylated peptide cleavage fluorescence | calls only | CAAX prenyl protease 2 (Saccharomyces cerevisiae (strain ATCC 204508 / S288c)), Q03530;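 active = fall in fluorescence gain of 50% or more versus controls, with final raw signal at or below 3038400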;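 also: plate controls were neutral control wells for no effect and wells lacking membranes for full effect; tested at 10 µM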
Target sequence (Q03530 whole entry, looked up): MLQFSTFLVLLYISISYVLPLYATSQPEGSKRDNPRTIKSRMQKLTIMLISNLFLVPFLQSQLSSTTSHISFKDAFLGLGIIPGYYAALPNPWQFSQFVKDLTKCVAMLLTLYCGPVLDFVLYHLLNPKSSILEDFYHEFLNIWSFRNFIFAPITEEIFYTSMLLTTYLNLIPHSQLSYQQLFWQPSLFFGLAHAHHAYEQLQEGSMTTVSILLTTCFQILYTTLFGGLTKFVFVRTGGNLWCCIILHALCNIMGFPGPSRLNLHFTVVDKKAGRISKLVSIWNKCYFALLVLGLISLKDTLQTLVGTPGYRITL
eIF4H inh – human eIF4H binding inhibitors, primary screen, translation initiation inhibitor project, biochemical, uHTS, fluorescence polarization. 290,000 tested, 0.94% active. AID 2012, 2009. eIF4H fluorescence polarization binding assay. Eukaryotic translation initiation factor 4H (Homo sapiens), Q15056. inhibition, % at 35 µM;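 active = 50% or more with normal probe brightness, or confirmed in later tests; about a fifth of its hits are not listed in these tables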;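 also: calls also rest on retests at 20 µM and on dose response follow-up; 0% = protein and probe with vehicle and 100% = probe without protein; strong numbers were not always called active; many hits fall short of the cut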
Yeast UUG start – modulators of yeast start codon fidelity, primary screen, whole organism, S. cerevisiae, single point, plate reader | AID 602363, 2012 | S. cerevisiae UUG-firefly luciferase reporter, luminescence/redox ratio | activity score, % at 18.7 µM | 350,000 tested, 0.13% active;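 active = replicate mean at a twofold rise or more, about +100% in these data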;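 also: firefly luciferase made from a UUG start codon reports start codon fidelity; reporter light over untreated wells divided by growth signal over untreated wells; some hits fall short of that in this replicate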
CSC inhib – cancer stem cell viability inhibitors, primary screen, luminescence; 300,000 tested, 1.1% active; inhibition, % at 7.5 µM; cancer stem cell-like cells viability;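 active = mean at 75% or more and at least half the replicates too; tested in HMLE shEcad cells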;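 also: 0% = median of negative and 100% = median of positive control wells; the first replicate is given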
MT1-MMP act inh RFP – further read-out of MT1-MMP act inh, marked with its call; RFP signal change, %; measured here: RFP expression control read;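 0 = vehicle wells; hits needed this value within 50% of zero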
An asterisk follows results filed as active.

O=C(OCc1ccc2c(c1)OCO2)c1cccc(S(=O)(=O)N2CCCCC2)c1 was read as MT1-MMP act inh 1, HIV Env fusion 13, PABP polyA inh -7, Rce1 inhib inactive, eIF4H inh 3, Yeast UUG start 6, CSC inhib -9 and MT1-MMP act inh RFP -6.
Screening CC1CCCN(C(=O)C2CCN(S(=O)(=O)c3cccc4cccnc34)CC2)C1 (stereo not given) returned MT1-MMP act inh -3, HIV Env fusion -2, PABP polyA inh 7, Rce1 inhib inactive, eIF4H inh 3, Yeast UUG start -2, CSC inhib -7 and MT1-MMP act inh RFP -1.
CCN(CC)C(=O)C(=O)c1cc(C)n(-c2ccc(F)cc2)c1C was read as MT1-MMP act inh 0, HIV Env fusion 16, PABP polyA inh -5, Rce1 inhib inactive, eIF4H inh 2 and MT1-MMP act inh RFP 0.
For CCOC(=O)N1CCC(NC(=O)C(CC(C)C)NC(=O)C2CCCCC2)CC1 (stereo not given) the results were MT1-MMP act inh 2, HIV Env fusion 5, PABP polyA inh -8, Rce1 inhib inactive, eIF4H inh -4, Yeast UUG start 8, CSC inhib -9 and MT1-MMP act inh RFP 3.
For CCOC(=O)C1=C(c2ccc(O)cc2)NC(=O)NC1C (stereo not given) the results were MT1-MMP act inh 0, HIV Env fusion 5, Rce1 inhib inactive, Yeast UUG start 3, CSC inhib -9 and MT1-MMP act inh RFP 1.
`NC(=O)CN1CCOCCOCCN(CC(N)=O)CCOCCOCC1` gave MT1-MMP act inh -3, HIV Env fusion 7, PABP polyA inh 8, Rce1 inhib inactive, eIF4H inh -4, Yeast UUG start -11, CSC inhib -6 and MT1-MMP act inh RFP -3.
O=C(Cc1ccccc1)NS(=O)(=O)c1ccc(N=NN2CCOCC2)cc1 was read as MT1-MMP act inh 3, HIV Env fusion -6, PABP polyA inh -2, Rce1 inhib inactive, eIF4H inh -9, CSC inhib 1 and MT1-MMP act inh RFP 2.
Screening NC(=O)C1CCN(c2ccc(S(=O)(=O)N3CCCCC3)cn2)CC1 returned MT1-MMP act inh 6, HIV Env fusion -3, PABP polyA inh 12, Rce1 inhib inactive, eIF4H inh -2, CSC inhib -13 and MT1-MMP act inh RFP 0.
Screening CCOC(=O)/C(C#N)=C1/C=Cc2ccccc2N1CC returned MT1-MMP act inh 3, PABP polyA inh -4, Rce1 inhib inactive, eIF4H inh -8, Yeast UUG start 5, CSC inhib -6 and MT1-MMP act inh RFP 0.
CC(C)CC(=O)Nc1c2c(nn1-c1cccc(Cl)c1)CS(=O)(=O)C2 was read as MT1-MMP act inh -2, HIV Env fusion -18, PABP polyA inh 9, Rce1 inhib inactive, eIF4H inh -1, Yeast UUG start 9, CSC inhib -9 and MT1-MMP act inh RFP -4.
Screening CCC1Oc2ccc(C)cc2N(CC(=O)NCc2ccco2)C1=O (stereo not given) returned MT1-MMP act inh -3, HIV Env fusion 3, PABP polyA inh -3, Rce1 inhib inactive, eIF4H inh -13, CSC inhib 2 and MT1-MMP act inh RFP -1.
Cc1ccc(S(=O)(=O)NC(=O)C2(C)CCN2C(=O)c2cccc(F)c2)nc1 (stereo not given) was read as MT1-MMP act inh 4, HIV Env fusion 2, Yeast UUG start 6 and MT1-MMP act inh RFP 7.
Screening O=C(Nc1ccccn1)c1ccc2c(c1)S(=O)(=O)c1ccccc1C2=O returned MT1-MMP act inh -2, HIV Env fusion -7, PABP polyA inh -9, Rce1 inhib inactive, eIF4H inh -4, Yeast UUG start -3, CSC inhib 3 and MT1-MMP act inh RFP 1.
O=C(N/N=C/c1cccc2ccccc12)c1n[nH]c2c1CCCC2 was read as HIV Env fusion -24, PABP polyA inh -2, Rce1 inhib inactive, eIF4H inh -10 and CSC inhib -1.
Screening Cc1ccc(NC(=O)Nc2ccc(C(=O)N3CCOCC3)cc2)cc1 returned MT1-MMP act inh -3, HIV Env fusion -9, PABP polyA inh 0, Rce1 inhib inactive, eIF4H inh -8, Yeast UUG start -16 and MT1-MMP act inh RFP -5.
Screening Cc1cc(N2C(=O)CC(N3CCN(C(c4ccccc4)c4ccccc4)CC3)C2=O)no1 (stereo not given) returned MT1-MMP act inh -23, PABP polyA inh -2, Rce1 inhib inactive, eIF4H inh 0, Yeast UUG start 3 and MT1-MMP act inh RFP -10.
For CCOc1ccc(N(CC(=O)Nc2ccc3c(c2)OCCO3)S(=O)(=O)c2c(C)noc2C)cc1 the results were MT1-MMP act inh -1, HIV Env fusion 18, PABP polyA inh 1, Rce1 inhib inactive, eIF4H inh -10, Yeast UUG start -10, CSC inhib -8 and MT1-MMP act inh RFP -3.
Screening O=C(Nc1cc(Br)ccc1O)C1CC(c2ccccc2Cl)=NO1 (stereo not given) returned MT1-MMP act inh 5, HIV Env fusion 8, PABP polyA inh 1, Rce1 inhib inactive, eIF4H inh -12, Yeast UUG start 9, CSC inhib 7 and MT1-MMP act inh RFP 5.
For COc1cccc(Nc2ncnc3sccc23)c1 the results were MT1-MMP act inh 0, HIV Env fusion -35, PABP polyA inh 6, Rce1 inhib inactive, eIF4H inh -4, Yeast UUG start -15 and MT1-MMP act inh RFP -2.
CCCNC(=O)c1cc(S(=O)(=O)N2CCc3ccccc32)ccc1F was read as MT1-MMP act inh -1, PABP polyA inh 7, Rce1 inhib inactive, eIF4H inh -6, Yeast UUG start -4, CSC inhib -4 and MT1-MMP act inh RFP -2.
CCC(c1nnnn1CS(=O)(=O)c1ccc(C)cc1)N1CCN(c2nc3ccccc3s2)CC1 (stereo not given) was read as MT1-MMP act inh -15, PABP polyA inh 23, Rce1 inhib inactive, eIF4H inh -4, CSC inhib 4 and MT1-MMP act inh RFP -26.
Cc1[nH]n(-c2ccccc2)c(=O)c1-c1cccc(Cl)c1 was read as MT1-MMP act inh 4, HIV Env fusion -65, PABP polyA inh 2, Rce1 inhib inactive, eIF4H inh -1, Yeast UUG start -14, CSC inhib -2 and MT1-MMP act inh RFP 3.
For Nc1cccnc1Sc1ccccc1 the results were MT1-MMP act inh 1, HIV Env fusion -11, Rce1 inhib inactive, Yeast UUG start -12, CSC inhib -2 and MT1-MMP act inh RFP 2.
`Cc1cccc(Oc2nc(CN3CCOCC3)nc3sc4c(c23)CCCC4)c1` gave MT1-MMP act inh -2, HIV Env fusion 26, PABP polyA inh -10, Rce1 inhib inactive, eIF4H inh 2, CSC inhib -7 and MT1-MMP act inh RFP -3.
For Cc1ccc(NC(=O)C2CCCN2S(=O)(=O)c2ccc(-c3ccc(=O)[nH]n3)s2)c(C)c1 (stereo not given) the results were MT1-MMP act inh -3, HIV Env fusion -2, PABP polyA inh 11, Rce1 inhib inactive, eIF4H inh 4, Yeast UUG start -21, CSC inhib 3 and MT1-MMP act inh RFP -1.
`CCn1nc(C(=O)NNC(=O)c2ccc(OC(F)F)cc2)c2ccccc2c1=O` gave MT1-MMP act inh 1, Yeast UUG start -12, CSC inhib -11 and MT1-MMP act inh RFP 1.
C=CCNC(=O)COc1ccccc1C#N was read as MT1-MMP act inh -2, HIV Env fusion -6, PABP polyA inh -18, Rce1 inhib inactive, eIF4H inh -3, CSC inhib -8 and MT1-MMP act inh RFP 0.
O=C(COc1ccc([N+](=O)[O-])cc1)Nc1ccncc1 was read as MT1-MMP act inh -3, HIV Env fusion -2, PABP polyA inh 42, Rce1 inhib inactive, eIF4H inh 1, CSC inhib 10 and MT1-MMP act inh RFP -4.
`COc1cc(C(=O)NCCN2CCN(C(=O)c3cc(OC)c(OC)c(OC)c3)CC2)cc(OC)c1OC` gave MT1-MMP act inh 1, HIV Env fusion -11, PABP polyA inh 4, Rce1 inhib inactive, eIF4H inh -4, Yeast UUG start 7, CSC inhib -19 and MT1-MMP act inh RFP 3.
Screening O=C(NC1CC2CCCC(C1)N2S(=O)(=O)c1ccccc1)c1ccco1 (stereo not given) returned MT1-MMP act inh 1, HIV Env fusion -12, PABP polyA inh -4, Rce1 inhib inactive, eIF4H inh -15, CSC inhib -10 and MT1-MMP act inh RFP 2.

Quoted at random: 2 compounds from above.
C=CCNC(=O)COc1ccccc1C#N was read as MT1-MMP act inh -2, HIV Env fusion -6, PABP polyA inh -18, Rce1 inhib inactive, eIF4H inh -3, CSC inhib -8 and MT1-MMP act inh RFP 0.
Cc1[nH]n(-c2ccccc2)c(=O)c1-c1cccc(Cl)c1 was read as MT1-MMP act inh 4, HIV Env fusion -65, PABP polyA inh 2, Rce1 inhib inactive, eIF4H inh -1, Yeast UUG start -14, CSC inhib -2 and MT1-MMP act inh RFP 3.

New compounds follow
Cc1nnc(SCC(=O)Nc2ccc(OC(F)F)c(Cl)c2)n(N)c1=O was read as MT1-MMP act inh 1, HIV Env fusion -25, Yeast UUG start -24, CSC inhib -13 and MT1-MMP act inh RFP 2.
For Cc1ccc(/C=N/n2c(C)nnc2C)s1 the results were MT1-MMP act inh -2, HIV Env fusion 7, PABP polyA inh -10, Rce1 inhib inactive, eIF4H inh 4, Yeast UUG start -25, CSC inhib 1 and MT1-MMP act inh RFP 2.
CC1(C)Cc2c(cnn2-c2ccc(F)cc2)C(NC(=O)CCCN2CCCCC2=O)C1 (stereo not given) was read as MT1-MMP act inh -2, HIV Env fusion 8, PABP polyA inh -12, eIF4H inh -3, Yeast UUG start -10, CSC inhib -5 and MT1-MMP act inh RFP -1.
For CCC1CCC2(CC1)NC(CO)(CO)CO2 (stereo not given) the results were MT1-MMP act inh 2, HIV Env fusion -8, PABP polyA inh -1, Rce1 inhib inactive, eIF4H inh 5, Yeast UUG start -13, CSC inhib 8 and MT1-MMP act inh RFP 4.
For CCOc1ccc(CC(=O)NNC(=S)NC2CCCCC2)cc1OCC the results were MT1-MMP act inh 3, PABP polyA inh -7, Rce1 inhib inactive, eIF4H inh 5, Yeast UUG start -12 and MT1-MMP act inh RFP 2.
Screening CCCCOc1ccc(C2C(C(=O)c3ccc(C)o3)=C(O)C(=O)N2Cc2ccco2)cc1 (stereo not given) returned MT1-MMP act inh 2, HIV Env fusion 4, PABP polyA inh 1, Rce1 inhib inactive, eIF4H inh 4, Yeast UUG start -13, CSC inhib -3 and MT1-MMP act inh RFP 4.
Screening O=S1(=O)CCOC[C@H](Cc2ccccc2)N1Cc1cccc(Cl)c1 returned MT1-MMP act inh 0, HIV Env fusion 14, Rce1 inhib inactive, Yeast UUG start 7, CSC inhib -7 and MT1-MMP act inh RFP -6.
For Cc1cccc(NC(=S)NNC(=O)c2csc3c2CCCC3)c1 the results were MT1-MMP act inh 7, HIV Env fusion -49, PABP polyA inh 5, Rce1 inhib inactive, eIF4H inh 18, Yeast UUG start -34, CSC inhib 3 and MT1-MMP act inh RFP 4.
For CCCCN(C)CCNC(=O)C(=O)c1c(C)[nH]c2ccccc12 the results were MT1-MMP act inh -2, HIV Env fusion -16, PABP polyA inh -1, Rce1 inhib inactive, eIF4H inh 6, CSC inhib -6 and MT1-MMP act inh RFP 3.
`O=C(NCc1ccc(F)cc1)c1cccc2c1C(=O)c1ccc(N3CCC(N4CCCCC4)CC3)cc1S2(=O)=O` gave MT1-MMP act inh -45, HIV Env fusion -8, Yeast UUG start -18 and MT1-MMP act inh RFP -4.
For CCOC(=O)NN1C(=O)c2ccccc2NC1c1ccc(OC)c(OC)c1 (stereo not given) the results were MT1-MMP act inh -3, HIV Env fusion 8, PABP polyA inh 6, Rce1 inhib inactive, eIF4H inh 1, Yeast UUG start -10, CSC inhib -14 and MT1-MMP act inh RFP -2.
Screening CCc1cc2c(NCCC(=O)O)ncnc2s1 returned MT1-MMP act inh 0, HIV Env fusion -20, PABP polyA inh 3, Rce1 inhib inactive, eIF4H inh -5, Yeast UUG start -14, CSC inhib -4 and MT1-MMP act inh RFP 4.

Screens from PubChem BioAssay.

The list is partial (hit frequency here may not be typical).
